GLA inh pH 4.5: qHTS Assay for Inhibitors of Human alpha-Galactosidase at pH 4.5. Alpha-galactosidase A (Homo sapiens), P06280. purified enzyme, 4-MU-alpha-Gal fluorescence, pH 4.5. activity change, negative = inhibition, % at 105 µM. 230,000 tested, under 10 active; inconclusive = small, poorly fitted or top-dose-only inhibition, or a rising curve; inactive = flat fitted curve, though single readings scatter; no compound was filed as active;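 further: 0% = full activity with enzyme and -100% = basal without enzyme; dose as in the result columns while the protocol names 77 µM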
Target sequence (P06280 whole entry, looked up): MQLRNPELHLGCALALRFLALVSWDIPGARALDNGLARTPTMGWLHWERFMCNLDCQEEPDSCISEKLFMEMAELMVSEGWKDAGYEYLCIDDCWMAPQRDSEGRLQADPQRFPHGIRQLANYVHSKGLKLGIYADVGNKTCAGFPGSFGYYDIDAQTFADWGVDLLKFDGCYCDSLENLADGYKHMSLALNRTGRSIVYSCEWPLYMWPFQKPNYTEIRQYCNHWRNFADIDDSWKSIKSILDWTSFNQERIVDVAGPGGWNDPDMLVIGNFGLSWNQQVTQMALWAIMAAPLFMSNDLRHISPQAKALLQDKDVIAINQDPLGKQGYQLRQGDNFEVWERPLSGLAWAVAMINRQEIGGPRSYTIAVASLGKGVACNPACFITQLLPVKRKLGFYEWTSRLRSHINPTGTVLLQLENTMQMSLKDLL
miR-21 reporter: qHTS Assay for Modulators of miRNAs and/orActivators of miR-21. HeLa miR-21 FLuc reporter, luciferase, 48 h. Potency, µM (top dose mostly 38.3 µM), for the others: at the top dose reporter change, positive = more light. 340,000 tested, under 10 active; active = well fitted rising curve with a large enough effect; inconclusive = small, poorly fitted or top-dose-only effect; inactive = no such curve, though single readings can be large or run the other way;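 further: % of control where 0% means no effect; miR-21 action dims this reporter so a rising signal means less miR-21 action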
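HeLa cells stably expressing CMV-driven firefly luciferase with a downstream miR-21 binding sequence, endogenously expressing miR-21, were treated with titrations (up to about 40uM final) for 48 hours at 37 degree Celsius. Luciferase luminescence was read after lysis.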
Rango-impB inh: qHTS Assay for Inhibitors of Rango (Ran-regulated importin-beta cargo) - Importin beta complex formation | Rango CFP/YFP FRET sensor + importin beta, 45 min | Potency, µM (highest dose often 92.2 µM), inactives show top-dose inhibition of complex formation | 340,000 compounds, 0.031% hits | AID 540263, 2011; active = rising FRET ratio curve, often small or poorly fitted; inconclusive = mostly compound fluorescence or quenching in the first reads; inactive = flat curves in all reads;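 further: potency means the concentration at half of the fitted maximal effect; 0% = DMSO wells and 100% = buffer wells lacking importin beta; nearly all actives have a fitted effect of over 15% in size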
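FRET biosensor Rango (snurportin 1 IBB between N-terminal EYFP and C-terminal Cerulean), 50 nM in PBS/1 mM DTT/0.02% Tween-20/0.1% BSA, preincubated 5 min RT with compound; 0.125 microM importin beta added, 45 min RT, CFP/YFP FRET ratio read.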
Rango dissoc inh: qHTS Assay for Inhibitors of RanGTP induced Rango (Ran-regulated importin-beta cargo) - Importin beta complex dissociation | Snurportin-1 (Homo sapiens) + GTP-binding nuclear protein Ran (Homo sapiens) + Importin … | 340,000 compounds, 0.071% hits | Biochemical FRET Rango-importin beta, RanGTP-induced dissociation | AID 540253, 2011 | Potency, µM (highest dose often 46.1 µM), inactives show at the highest dose activity change, negative = inhibition; active means falling FRET ratio curve, often poorly fitted, with flat reads before Ran was added; inconclusive means other falling curves, or compound fluorescence or quenching; inactive means flat or rising ratio curve;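 further: potency means the concentration at half of the fitted maximal effect; % of control where 0% means no effect; nearly all actives have a fitted effect of over 45% in size; -100% = wells without RanGTP and RCC1; the record marks most hits as doubtful in a second field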
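FRET read at 45 min, room temperature: inhibitors block the CFP/YFP signal rise when RanGTP (0.6 uM Ran, 2 mM GTP, 0.2 uM RCC1) frees Rango (0.1 uM) from importin beta (0.25 uM). Pre-read after 5 min compound exposure flags interference.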
Numbers without * were called inactive; u = inconclusive; x = not tested or not shown; & = joins results of further samples.

entry	SMILES	GLA inh pH 4.5	miR-21 reporter	Rango-impB inh	Rango dissoc inh
1	Cc1ccc(SCC(=O)c2c(C)nc3cc(C)ccn23)cc1	-4	-11%	0.4%	8%
2	CCOc1ccc(NC(=O)CCC(=O)Nc2nnc(CC)s2)cc1	x	1%	0.0%	-1%
3	CCCn1c(C(O)c2cc(OC)c(OC)c(OC)c2)nc2ccccc21 (stereo unspecified)	x	0%	-0.4%	7%
4	Cc1ccc(CSc2nnc(-c3cccc(S(=O)(=O)N4CCOCC4)c3)n2CC(C)C)cc1	-9	13%	-0.1%	3%
5	CN1CCC(NC(=O)c2cccc(Oc3ccccc3)c2)CC1	x	2%	-1.4%	4%
6	COC(=O)/C(=C/c1c[nH]c2ccccc12)[N+](=O)[O-]	-6	6%	-5.1%	-14%
7	O=C(O)c1cc(N2C(=O)C3CC=CCC3C2=O)ccc1NCc1cccnc1 (stereo unspecified)	-14	1%	0.1%	1%
8	O=C1C=C(c2ccc(F)nc2)CCC1	x	x	-0.5%	15%
9	COCCCNC(=O)CN(CCc1ccccc1)S(=O)(=O)c1ccc(C)cc1	1	4%	0.2%	-3%
10	CCn1ncc(CN2CCN(Cc3cccc(OC)c3)C(CCO)C2)c1C (stereo unspecified)	3	-1%	-0.9%	-12%
11	CSCC[C@@H](C(=O)Nc1ccc2c(c1)OCCO2)N1Cc2ccccc2C1=O	-14	-42%	-0.7%	15%
12	CCS(=O)(=O)c1nc(S(=O)(=O)c2ccc(C)cc2)c(NCCCN2CCCC2=O)s1	x	0%	0.9%	19%
13	O=C(Cn1cnc2sc3c(c2c1=O)CCCC3)NCC(=O)Nc1ccc(F)cc1F	x	-5%	2.9%	-10%
14	COc1ccc(-c2cc(CNC(C)=O)on2)cc1	4	-15%	-0.1%	7%
15	COc1cc(C2N=C(c3ccccc3)NO2)cc(Br)c1O (stereo unspecified)	-3	-24%	-0.1%	-17%
16	NC(=O)CSc1c[nH]c2ccccc12	-20	1%	-3.6%	20%
17	Cc1ccc(C)c(C(=O)CCC(=O)Nc2ccc(N3CCN(C)CC3)cc2C)c1	x	x	-0.4%	-4%
18	Cc1[nH]c2ccccc2c1NC(=O)CN1CCN(C(=O)c2ccco2)CC1	3	1%	-1.1%	-7%
19	COc1cccc(-c2cc(C(=O)Nc3cnn(Cc4ccc(F)cc4)c3)no2)c1	1	-11%	7.7%	-1%
20	COc1ccc(C(=O)CNc2ccc(C)cc2C)cc1	-3	-11%	5.7%	11%
21	CC(C)(CO)CNC1CCCN(C2Cc3ccccc3C2)C1 (stereo unspecified)	x	1%	0.3%	0%
22	CCC1CCCCN1Cc1nc2c(c(=O)n(C)c(=O)n2C)n1Cc1ccccc1 (stereo unspecified)	-2	3%	-1.2%	0%
23	O=C(c1cccc(S(=O)(=O)N2CCc3ccccc32)c1)N1CCCC(C(F)(F)F)C1 (stereo unspecified)	x	x	-3.1%	7%
24	Cc1ccc(S(=O)(=O)Oc2ccc(/C=C(/NC(=O)c3ccccc3)C(=O)O)cc2)cc1	-11	-3%	1.3%	-3%
25	CCOC(=O)CNC(c1ccccc1)c1cc(Br)ccc1NC(=O)CCN1CCOCC1 (stereo unspecified)	-2	-1%	1.4%	13%
26	O=C(Oc1cccc(-n2cnnn2)c1)c1sc2ccccc2c1Cl	-6	-2%	-0.8%	-23%
27	CCOC(=O)c1c(C)c(C(=O)NCCCN2CCCC2=O)c(C)n1CC	3	-6%	0.2%	6%
28	CCOc1ccc(NC(=O)c2sc3nc4n(c(=O)c3c2C)CCC4)cc1	x	-7%&0%	-1.1%	-11%
29	CC(C)(C)S(=O)(=O)/C(C#N)=C/c1sccc1C1OCCO1	-15	-3%	4.7%	-10%
30	FCCCOc1ccc(-c2nccc(-c3ccccn3)n2)cc1	x	-49%	1.2%	0%
31	CC(C)Oc1ccc(S(=O)(=O)N2CCCCC2)cc1NC(=O)C1CSC2(C)CCC(=O)N12 (stereo unspecified)	x	x	1.4%	5%
32	CC(NC(=O)COC(=O)c1ccc(S(=O)(=O)N2CCOCC2)cc1)c1ccccc1 (stereo unspecified)	x	x	0.6%	-16%
33	Nc1nnc(SCc2ccc(Cl)cc2)s1	6	-32%	-0.5%	3%
34	CC(=O)c1c(C)oc2ccc(NS(=O)(=O)c3ccccc3)cc12	x	20%	3.0%	30%
35	C=CCc1c(C)nc(N2CCSCC2)[nH]c1=O	5	-3%	4.7%	-3%
36	O=C(NC1CCN(c2ncccn2)CC1)c1cccc(F)c1	x	0%	2.6%	0%
37	COC(=O)/C=C1/SC(=Nc2ccc(C)cc2C)NC1=O	-2	-7%	-4.1%	1%
38	O=C(CSc1nnc(SCc2ccc(Cl)cc2)s1)N/N=C/c1ccc(Cl)cc1Cl	-1	3%	0.6%	13%
39	CCC(=O)Nc1cc(C)c(NC(=O)C23CC4CC(CC(C4)C2)C3)cn1	7	-13%	1.4%	-24%
40	CCC(C)[C@H](NC(=O)N1CCC(C)CC1)C(=O)O (stereo partly specified)	9	1%	2.4%	u
41	CC(=O)c1ccc(NC(=O)CSc2nnc(-c3ccco3)o2)cc1	x	-23%	4.0%	-6%
42	CCC(Sc1nccn1C)C(=O)Nc1ccc(Cl)cn1 (stereo unspecified)	6	-2%	-0.4%	1%
43	Nc1cccc2c1C(=O)N(C(=O)c1ccco1)C2=O	6	-4%	u	u
44	COc1ccccc1CN(C)c1nnnn1-c1ccccc1	-5	-12%	-5.0%	5%
45	O=C(Nc1cccnc1)c1ccc(COc2ccccc2Cl)o1	-4	6%	2.1%	11%
46	O=C(NC1CCCC1)C(c1ccncc1)N(CC1CCCO1)C(=O)Cn1nnc(-c2cccs2)n1 (stereo unspecified)	-10	-4%	2.8%	-8%
47	CCNc1nc(NCC)n2c(SCc3ccc(F)cc3)nnc2n1	-11	-1%	3.7%	-1%
48	CCOC(=O)C(=O)/C(=C\N(C)C)c1onc(-c2c(Cl)cccc2Cl)c1C(=O)OC	-7	-11%	-0.5%	-2%

Sorted by value in miR-21 reporter (largest number first): three from the list above
entry	SMILES	GLA inh pH 4.5	miR-21 reporter	Rango-impB inh	Rango dissoc inh
40	CCC(C)[C@H](NC(=O)N1CCC(C)CC1)C(=O)O (stereo partly specified)	9	1%	2.4%	u
37	COC(=O)/C=C1/SC(=Nc2ccc(C)cc2C)NC1=O	-2	-7%	-4.1%	1%
41	CC(=O)c1ccc(NC(=O)CSc2nnc(-c3ccco3)o2)cc1	x	-23%	4.0%	-6%

(continued)
entry	SMILES	GLA inh pH 4.5	miR-21 reporter	Rango-impB inh	Rango dissoc inh
49	Cc1ccnc(SCC(=O)c2ccc(Br)s2)n1	-8	-38%	-0.3%	-6%
50	CCn1c(SCC(=O)c2ccc(NS(=O)(=O)c3ccccc3)cc2)nnc1-c1cccs1	-6	-2%	0.7%	0%
51	Cn1cc(SCC(=O)Nc2nccs2)c2ccccc21	-4	-47%	-2.5%	0%
52	C/C(=N\NC(=S)Nc1ccccc1C)C1Cc2ccccc2C(=O)O1 (stereo unspecified)	2	-10%	-0.1%	4%
53	CCOC(=O)c1sc(NC(=O)c2cc(-c3ccc(C)cc3)nc3ccccc23)c(C#N)c1C	-1	-1%	-2.9%	2%
54	CCCCCCc1cc2cc(C(=O)Nc3cccc(OC)c3)c(=O)oc2cc1O	-6	-4%	u	u
55	Cc1ccc(C23CC4CC(CC(C(=O)OCC(=O)NC5CCS(=O)(=O)C5)(C4)C2)C3)cc1 (stereo unspecified)	-3	-7%	-0.9%	-8%
56	O=C(O)c1ccc(NC2OC[C@@H](O)[C@H](O)[C@H]2O)cc1 (stereo partly specified)	x	x	-5.2%	-13%
57	CCOC(=O)c1ccc(NC(=S)NCc2ccc(S(N)(=O)=O)cc2)cc1	x	-6%	-2.4%	-10%
58	Cc1c(C)c(C)c(S(=O)(=O)N2CCC3(CC2)OCCO3)c(C)c1C	x	-9%	-3.3%	0%
59	CC(C)n1nnc2c(=O)oc3ccccc3c21	0	-2%	4.0%	0%
60	O=C(C1=C(O)C(=O)N(CCc2ccccc2)C1c1cccs1)c1ccco1 (stereo unspecified)	-1	1%	4.3%	16%
61	Cn1c(=O)c2[nH]c(CSCc3ccccc3)nc2n(C)c1=O	x	x	4.5%	-9%
62	CCCn1cc(CN2CCC(n3nccc3NC(=O)c3ccc4c(c3)OCO4)CC2)c(C)n1	x	0%	-1.0%	0%
63	COc1ccc(/C=C2\SC(=S)N(CC(=O)OCC(=O)Nc3ccc(C)cc3Cl)C2=O)cc1	-6	-1%	2.3%	-10%
64	O=C(Nc1nnc(-c2ccccc2)o1)c1cc(-c2cccs2)nc2ccccc12	-7	21%	-0.6%	-17%
65	Cc1ccsc1/C=C(\C#N)C(=O)NCCCN1CCOCC1	-21	-19%	1.9%	32%
66	Cc1ccc(S(=O)(=O)NCCc2ccncc2)cc1[N+](=O)[O-]	x	-5%	-0.3%	3%
67	COCCn1nnnc1C(c1cc(OC)ccc1OC)N1CCc2ccccc2C1 (stereo unspecified)	-2	-4%	2.3%	4%
68	C=C(C)C(=O)Nc1cccc(C2=NOC3(C2)C[C@@H](C(N)=O)N(C(=O)CC(c2ccccc2)c2ccccc2)C3)c1 (stereo partly specified)	-5	15%	-1.5%	3%
69	O=C1Nc2ccc(Br)cc2C1=Nc1ccc(-c2nnc3n2CCCCC3)cc1	-4	10%	x	x
70	O=C1[C@@H]2Cc3c([nH]c4ccccc34)CN2C(=O)CN1CCCO	x	-3%	-0.2%	13%
71	Cc1nn(-c2ccccc2)c(N2CCCC2)c1C=O	3	7%	0.3%	-5%
72	CN(C)S(=O)(=O)c1ccc(C(=O)Nc2cc3c(cc2C(=O)O)OCCCO3)cc1	x	-1%	0.5%	4%
73	CCC1CCCCN1C(=O)CSc1nnc(N)s1 (stereo unspecified)	x	x	-0.8%	0%
74	COC(=O)C(C(=O)OC)C(C[N+](=O)[O-])c1ccc(OC)cc1 (stereo unspecified)	4	-2%	3.2%	-7%
75	CCCCNc1ccc(S(N)(=O)=O)cc1[N+](=O)[O-]	-11	-16%	x	x
76	COc1ccc2nc(/N=C\N(C)C)sc2c1	10	-22%	2.5%	-14%
77	COc1ccc(CCN(C)C(=O)Cc2ccc(-c3ccccc3)cc2)cc1OC	x	13%	-1.4%	1%
78	COc1cccc(CC2(CO)CCCN(Cc3ccc(-c4ccco4)cc3)C2)c1 (stereo unspecified)	-6	-1%	-0.8%	9%
79	CCOc1ccc(C(=O)C(CN2CCOCC2)c2ccccc2)cc1 (stereo unspecified)	-9	u	-0.5%	-4%

Structures shown so far with bromine (4):
entry	SMILES	GLA inh pH 4.5	miR-21 reporter	Rango-impB inh	Rango dissoc inh
15	COc1cc(C2N=C(c3ccccc3)NO2)cc(Br)c1O (stereo unspecified)	-3	-24%	-0.1%	-17%
25	CCOC(=O)CNC(c1ccccc1)c1cc(Br)ccc1NC(=O)CCN1CCOCC1 (stereo unspecified)	-2	-1%	1.4%	13%
49	Cc1ccnc(SCC(=O)c2ccc(Br)s2)n1	-8	-38%	-0.3%	-6%
69	O=C1Nc2ccc(Br)cc2C1=Nc1ccc(-c2nnc3n2CCCCC3)cc1	-4	10%	x	x

The list is partial; the hit share may differ from the screen's.
